# Screening data as filed in PubChem BioAssay.
# Rango dissoc inh: prevents RanGTP from dissociating the Rango-importin beta complex; Biochemical FRET Rango-importin beta, RanGTP-induced dissociation; Potency, µM (top dose mostly 46.1 µM), for the others: at the top dose activity change, negative = inhibition; AID 540253; hit rate 0.071% among 340,000; active means falling FRET ratio curve, often poorly fitted, with flat reads before Ran was added; inconclusive means other falling curves, or compound fluorescence or quenching; inactive means flat or rising ratio curve;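 also: potency is read from the fitted curve at half-maximal effect; % of control where 0% means no effect; nearly all actives have a fitted effect of over 45% in size; -100% = wells without RanGTP and RCC1; the record marks most hits as doubtful in a second field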
#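 Compounds sat 5 min at room temperature with 0.1 uM Rango biosensor plus 0.25 uM importin beta, then FRET pre-read. RanGTP-RCC1 (0.6 uM Ran, 2mM GTP, 0.2 uM RCC1) added for 45 min, and the CFP/YFP post-read measured blocked complex dissociation.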
# miR-21 FLuc: miR-21 reporter, rising signal; HeLa miR-21 FLuc reporter, luciferase, 48 h; Potency, µM (titrated, usually from 38.3 µM), inactives show at the highest dose reporter change, positive = more light; 340,000 tested, under 10 active; AID 2288; active = well fitted rising curve with a large enough effect; inconclusive = small, poorly fitted or top-dose-only effect; inactive = no such curve, though single readings can be large or run the other way;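 also: % of control where 0% means no effect; miR-21 action dims this reporter so a rising signal means less miR-21 action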
#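 HeLa miR-21-FLuc reporter line, endogenous miR-21; 2000 cells/well in DMEM/10% FBS; compound titration up to ~40uM final, 48 h, 37 degree Celsius; luciferase detection reagent, 15 min lysis, CCD luminescence.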
# Rango complex inh: prevents formation of the Rango-importin beta complex; Rango CFP/YFP FRET sensor + importin beta, 45 min; AID 540263; Potency, µM (series often up to 92.2 µM), for the others: at the top dose inhibition of complex formation; Q14974; hit rate 0.031% among 340,000; active = rising FRET ratio curve, often small or poorly fitted; inconclusive = mostly compound fluorescence or quenching in the first reads; inactive = flat curves in all reads;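 also: potency is read from the fitted curve at half-maximal effect; 0% = DMSO wells and 100% = buffer wells lacking importin beta; nearly all actives have a fitted effect of over 15% in size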
#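 Inhibition scored from the CFP 486 nm/YFP 530 nm FRET ratio 45 min after adding 0.125 microM importin beta to 50 nM Rango biosensor preincubated 5 min with compound (room temperature, PBS with DTT, Tween-20, BSA). No-importin wells as positive control.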
# GLA inh pH 4.5: inhibitors of human alpha-galactosidase A at pH 4.5 | P06280 | purified enzyme, 4-MU-alpha-Gal fluorescence, pH 4.5 | activity change, negative = inhibition, % at 105 µM | 230,000 tested, under 10 active | AID 1467; inconclusive = small, poorly fitted or top-dose-only inhibition, or a rising curve; inactive = flat fitted curve, though single readings scatter; no compound was filed as active;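 also: 0% = full activity with enzyme and -100% = basal without enzyme; dose as in the result columns while the protocol names 77 µM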
# Target sequence (P06280 whole entry, looked up): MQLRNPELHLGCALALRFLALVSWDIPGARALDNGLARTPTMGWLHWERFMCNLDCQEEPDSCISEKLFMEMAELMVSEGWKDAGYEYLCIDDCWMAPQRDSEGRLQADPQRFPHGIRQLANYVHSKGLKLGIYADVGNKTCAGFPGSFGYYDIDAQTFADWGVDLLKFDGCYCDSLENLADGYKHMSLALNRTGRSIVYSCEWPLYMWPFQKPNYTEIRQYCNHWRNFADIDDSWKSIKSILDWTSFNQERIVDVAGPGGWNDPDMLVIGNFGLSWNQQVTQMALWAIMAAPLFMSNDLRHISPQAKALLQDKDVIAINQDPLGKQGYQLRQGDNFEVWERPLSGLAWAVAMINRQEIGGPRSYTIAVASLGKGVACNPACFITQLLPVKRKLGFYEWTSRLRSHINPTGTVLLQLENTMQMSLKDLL
# An asterisk follows results filed as active; ? = inconclusive; · = no result given; & = joins results of further samples; [ ] = dose if it differs, or a comment. An excerpt, so the mix of outcomes need not match the whole.
SMILES,Rango dissoc inh,miR-21 FLuc,Rango complex inh,GLA inh pH 4.5
Cc1[nH]n2c(=O)c3c(nc2c1-c1ccc(Cl)cc1)CCC3,4.1%,-2.9%,2.6%,-9.1
O=C(COc1ccc2c(c1)OCO2)Nc1cccc(F)c1,5.1%,-72.2%,-0.5%,·
Cn1c(=O)[nH]c(=O)c2c1nc1n2CCN1Cc1ccccc1,0.1%,-15.6%,0.9%,-10.9
Cc1cc(NC(=O)c2ccccc2)no1,3.3%,-36.0%,-2.2%,·
CN(C(=O)COC(=O)c1cc2c(s1)CCCCC2)c1ccccc1,2.7%,·,-3.0%,·
O=[N+]([O-])c1ccc(-n2cnc3ccccc32)c([N+](=O)[O-])c1,0.5%,24.3%,-0.5%,-0.2
CC1Cc2cccc3c(O)c(C(=O)c4nn[nH]n4)c(=O)n1c23 (stereo not drawn),0.0%,-8.9%,-2.3%,-13.1
O=C(CCc1ccccc1)N=C1SC2CS(=O)(=O)CC2N1c1cccc(F)c1 (stereo not drawn),-5.5%,-9.5%,-0.7%,·
Oc1ccccc1C1=NOC(O)(C(F)F)C1 (stereo not drawn),18.8%,-1.1%,7.3%,13.2
O=S(=O)(NCc1ccccc1)c1cnc[nH]1,10.5%,-4.3%,-1.9%,-7.9
C/C(=N\NC(=O)c1c(Cl)c(C)nn1C)c1cccc(NC(=O)C2CCCC2)c1,-1.5%,-17.7%,3.6%,·
Nc1c(Cl)ncnc1NCCO,2.9%,-0.1%&2.2%,1.4%,4.1&-3.2
COc1ccc(-n2c(SCC(=O)C(C)(C)C)nc3ccsc3c2=O)cc1,-8.3%,-3.1%,0.4%,-2.6[21.1 µM]
CCn1c(SCC(=O)Nc2ccc(OC)c(OC)c2)nc2c(c1=O)SCC2,-16.4%,0.9%,-0.7%,·
Cc1ccc(CSc2ncnc3c2cnn3-c2ccc(C)cc2)cc1,-3.6%,-48.1%,0.0%,-1.4
O=C1CC(c2ccco2)Cc2c1cnn2-c1nc2ccccc2s1 (stereo not drawn),7.7%,-7.8%,-0.1%,-1.3
Nc1c(C(=O)c2ccccc2)sc2nsc(SCCN3CCCC3)c12,?,-8.1%,?,-2.2
COC(=O)c1cc(C)nc(Sc2ccccc2N)n1,5.6%,-15.6%,-2.1%,-2.3
CC(NCC(O)COC1CCC(C(C)(C)C)CC1)c1ccccc1 (stereo not drawn),22.2%,?,?,-15.4
CCCCn1c(N)c(N(CCOC)C(=O)C2CC(=O)N(Cc3ccco3)C2)c(=O)[nH]c1=O (stereo not drawn),-18.6%,·,?,·
CCN(CC)CCN1C(=O)C(=O)/C(=C(/O)c2cnn(-c3ccccc3)c2C)C1c1cccnc1 (stereo not drawn),5.0%,-6.9%,2.3%,-9.5
CN(Cc1ccccc1F)C(=O)c1cccc(NC(=O)CC2SC(N3CCCCC3)=NC2=O)c1 (stereo not drawn),-19.3%,·,?,·
CCC(C)(C)n1nnnc1CN(Cc1cccs1)Cc1cc2cc(OC)ccc2[nH]c1=O,5.6%,18.9%,-1.1%,-2.0
O=C(COc1ccc(Cl)cc1Br)Nc1nnc(C2CC2)s1,6.6%,·,0.8%,·
Cc1cccnc1NC(=O)C1c2ccccc2Oc2ccccc21,-8.9%,-6.4%,-0.5%,3.7
CCC(C)N=C1Sc2nc3ccc(C)cc3cc2CN1CCOC (stereo not drawn),-1.8%,4.8%,-2.9%,1.4
Nc1ccc(/C=C/c2ccc3ncccc3c2)cc1,?,-4.3%,?,1.5
COCc1nnc(NC(=O)c2ccc(S(=O)(=O)N3CCOCC3)cc2)o1,-5.5%,1.6%,-2.1%,·
CCCc1nn(C)c(C(=O)Nc2cccc(Cl)c2)c1Cl,0.9%,-66.2%,0.4%,-4.4
O=C(CCc1ccc(O)c(O)c1)NNC(=S)Nc1ccc(Br)cc1Cl,-8.7%,-1.2%,1.3%,-1.7
Oc1ccccc1-n1c(-c2ccccc2)ccc1-c1ccccc1,-2.0%,16.4%,1.7%,-1.7
CC(OC(=O)c1oc2ccccc2c1CSC1CCCCC1)C(=O)NC(N)=O (stereo not drawn),9.6%,-2.0%,-2.1%,0.4
COc1ccc(N(CC(=O)NCC2CCCO2)S(=O)(=O)c2ccccc2)cc1OC (stereo not drawn),20.9%,-1.0%,-0.1%,·
C#CCNC(=O)C1=C[C@H](c2cn(C(C)=O)c3ccccc23)C[C@H](OCc2ccc(CO)cc2)O1,-6.0%,10.5%,-1.7%,-3.9
CCC(C)C(NC(=O)c1ccccc1NC(=O)c1ccco1)C(=O)O (stereo not drawn),1.4%,-1.0%,2.1%,-1.8
Cc1ccc(-c2nc3ncccn3c2NC(=O)C2CC2)cc1,1.0%,-3.6%,0.1%,-19.9
CC(C)=CCc1c(O)cc2c(=O)c3ccc(O)cc3oc2c1O,3.9%,·,0.3%,·
O=C(O)c1cc2ccccc2c(=O)s1,-2.1%,-2.0%,-1.0%,8.4
CN1CCN(C(=O)c2cccc(NS(=O)(=O)c3ccc(Br)cc3)c2)CC1,-4.0%,·,0.4%,·
Cc1onc(-c2c(Cl)cccc2Cl)c1C(=O)c1ccccc1,-10.7%,10.4%,1.2%,-4.8
CCOc1ccccc1NC(=O)CNC(=O)Cc1ccccc1,15.6%,-2.3%,1.4%,-9.9
O=C(Cn1ncc(Cl)c(Cl)c1=O)N1CCN(Cc2ccccc2)CC1,-6.4%,?,-2.1%,7.1
CCOc1cc(CNn2cnnc2)ccc1OCC(=O)NC1CCCCC1,1.4%,-2.6%,12.9%,3.0
CC(C)(C)c1ccc(C(=O)NCCC(=O)NNC(=O)COc2ccc(F)cc2)cc1,5.4%,·,1.8%,·
NC(=O)CNCCC(c1ccccc1)c1ccccc1,-9.0%,·,-1.9%,-16.0&4.7
Fc1ccccc1CNC(=S)NC1CCCCC1,2.9%,-7.3%,0.7%,·
O=C(Nc1ccccc1)C(Cc1ccccc1)c1ccccc1 (stereo not drawn),5.9%,·,0.8%,·
Cn1c(=O)c2c(nc(CN3CCN(C(=O)c4ccco4)CC3)n2Cc2ccccc2F)n(C)c1=O,1.3%,-5.7%,-0.9%,-1.3
O=C(COc1c(Cl)cccc1Cl)NN1C(=O)CSC1=S,-7.5%,1.6%,0.8%,-0.9
COc1ccccc1C(=O)NCCC(=O)N(C)Cc1cccs1,17.9%,·,0.5%,·
# The results go on.
SMILES,Rango dissoc inh,miR-21 FLuc,Rango complex inh,GLA inh pH 4.5
C/C(=N\NC(=S)Nc1ccc(F)cc1)c1ccc2c(c1)OCCO2,-3.2%,-16.2%,0.0%,0.6
COc1ccc(NC(C)C(=O)N/N=C/c2cc(Br)ccc2OC)cc1 (stereo not drawn),0.4%,0.4%,-0.2%,-9.7
O=C(NCCN1CCOCC1)c1cc(-c2ccc(Cl)cc2)on1,-4.4%,-2.6%,-1.1%,0.1
CC(C)(C)NC(=O)C(c1cccs1)N(Cc1ccc(F)cc1)C(=O)c1csnn1 (stereo not drawn),-19.6%,-0.4%,2.2%,2.0
Cc1ccc(NC(=O)CCN2C(=O)NC(C)(C)C2=O)cc1F,-5.6%,·,1.7%,·
O=C(CSc1ccc2nnc(CCNC(=O)c3ccc(F)cc3)n2n1)NCc1ccco1,7.6%,-1.6%,4.2%,·
CC1CCCCC1NC(=O)c1ccc(S(=O)(=O)NNC(=O)c2ccncc2)cc1 (stereo not drawn),24.0%,5.0%,4.3%,2.3
CN(C)CCN(C(=O)c1cccs1)c1nc2cc3c(cc2s1)OCCO3,3.2%,-34.9%,-4.8%,·
O=C(Nc1cc(Cl)ccc1-n1cncn1)c1ccco1,-4.5%,·,-0.3%,·
CCN1CCN(c2ncc(C(=O)N3CCCc4ccccc43)c3ccccc23)CC1,7.8%,3.2%,0.0%,-1.5
COc1ccc(N2CCN(C(=O)COCC(=O)O)CC2)cc1,-16.7%,-0.5%,5.5%,7.3
CC(OC(=O)C1CCN(S(=O)(=O)c2ccc(Cl)cc2)CC1)C(=O)NC1CCCCC1C (stereo not drawn),-7.5%,6.2%,0.1%,·
COc1ccc(N2CCN(C(c3cccs3)C(C)NC(=O)c3ccco3)CC2)cc1 (stereo not drawn),-6.5%,14.6%,1.8%,-20.0
Cc1ccc(SCCC(=O)NCc2ccccn2)cc1,-2.9%,5.8%,0.2%,3.8
Cc1ccc(N=Cc2c(O)c3ccccc3oc2=O)c(C)c1,-3.0%,-12.7%,?,·
O=C(C=NNc1ccccc1)c1ccccc1,-6.9%,·,-0.6%,·
CCNCc1nc2cc(Cl)ccc2c(=O)[nH]1,1.3%,-0.9%,-0.5%,-11.6
CC(C)Nc1nc(-c2ccncc2)nc(-c2ccccc2)c1C#N,2.0%,-1.1%,-2.1%,·
O=C(O)CCC(=O)Nc1ccc(C(=O)OCC(=O)c2ccc(Cl)cc2Cl)cc1,0.8%,-1.9%,0.3%,-2.5
O=C(NCc1ccccc1Cl)c1cnc2n(c1=O)CCS2,-16.3%,4.1%,-1.2%,-4.3

# 3 compounds already listed, ordered by SMILES length, highest first:
SMILES,Rango dissoc inh,miR-21 FLuc,Rango complex inh,GLA inh pH 4.5
CC(OC(=O)C1CCN(S(=O)(=O)c2ccc(Cl)cc2)CC1)C(=O)NC1CCCCC1C (stereo not drawn),-7.5%,6.2%,0.1%,·
COc1ccc(N2CCN(C(=O)COCC(=O)O)CC2)cc1,-16.7%,-0.5%,5.5%,7.3
O=C(C=NNc1ccccc1)c1ccccc1,-6.9%,·,-0.6%,·

# Going on with the list:
SMILES,Rango dissoc inh,miR-21 FLuc,Rango complex inh,GLA inh pH 4.5
CCOC(=O)C1=C(CC)Nc2ccccc2N=C1NC(=O)c1ccc(OC)c(S(=O)(=O)N2CCCCC2C)c1 (stereo not drawn),-11.7%,-4.5%,-1.6%,-6.6
O=C(NCc1ccco1)C1CCCN(S(=O)(=O)c2ccc(Br)cc2)C1 (stereo not drawn),-7.2%,1.2%,3.9%,-7.2
CCCc1ncc(C(O)c2cccc(OC)c2OC)n1C (stereo not drawn),11.5%,-2.4%,1.1%,5.1
CCOC(=O)c1cc2c(=O)c3ccccc3oc2nc1C,-0.2%,-46.9%,1.7%,·
CN(Cc1ccccc1)S(=O)(=O)c1ccc(Cl)c(C(=O)NCc2cccnc2)c1,5.4%,·,-1.2%,·
Cc1ccccc1-n1ncc2c1CC(C)(C)CC2NC(=O)CCn1cncn1 (stereo not drawn),-1.4%,0.0%,-1.0%,·
CC(=O)NC(Cc1ccccc1)C(=O)OCC(=O)c1ccc(Br)cc1 (stereo not drawn),-0.4%,1.0%,-0.4%,-5.7
CCOC(CNC(=O)c1cccn2c(=O)c3c(C)c(C)sc3nc12)OCC,-10.3%,-0.2%,0.4%,·
O=C(NNC(=O)c1c(O)c2ccccc2[nH]c1=O)c1ccccc1Br,15.2%,4.7%,3.4%,·
CCOC(=O)N/N=C\c1ccc([N+](=O)[O-])o1,14.5%,23.0%,3.3%,0.7
CCc1ccccc1S(=O)(=O)Cc1ccc(C(=O)NC2CCCC2)o1,13.2%,0.0%,0.5%,·
CC(c1ccccc1)n1c(SCC(=O)N2CC(=O)Nc3ccccc32)nc2ccccc2c1=O (stereo not drawn),0.5%,26.6%,-0.2%,2.4
COc1ccc(C(=O)N2CCN(Cc3ccccc3C)CC2)cc1OC,0.2%,-1.1%,-0.4%,0.0
c1ccc(OCCOc2ccccc2-c2nnco2)cc1,9.6%,-50.0%,-3.9%,1.4
COC(=O)c1ccc(CSc2cc(C)c3ccccc3n2)o1,-10.0%,-7.1%,-2.3%,-7.3
CCOc1ccc(CCNC(=O)c2cc3sccc3n2C)cc1OCC,-4.1%,10.3%,1.1%,-9.0
Cc1nc2ccccc2nc1CSc1nnc(N)s1,13.3%,0.9%,0.0%,2.4
COc1cc2cc(CCCOC(=O)c3ccc(F)cc3)oc(=O)c2cc1OC,-8.8%,·,-2.9%,·
Cc1c(C(=O)N/N=C/c2ccccc2)[nH]c2ccc(Cl)cc12,1.7%,2.0%,-1.7%,4.9
